Source: PubChem BioAssay
Mtb H37Rv = M. tuberculosis H37Rv growth inhibitors, H37Rv strain (AID 1626); M. tuberculosis H37Rv growth inhibition; higher % means a stronger effect; one-dose inhibition, % at 10 µM; IC50 in µM for titrated hits; hit rate 0.95% among 220,000;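 active means confirmed in a dose series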;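 further: bacteria incubated seven days before Alamar blue readout; 0% = bacteria only wells and 100% = bacteria with antibiotic wells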
YopH inh = YopH (Yersinia) phosphatase inhibition. fluorescence Ex485/Em525. inhibition, %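 (about 10 µM by stock and volumes)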. hit rate 0.16% among 140,000;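 active means inhibition of 50% or more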;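 further: controls were vehicle for no effect and minimum signal wells for full effect; inactives centre near -20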
Mtb betalactam = beta-lactam sensitization of Mtb H37Rv; M. tuberculosis H37Rv growth with meropenem, percent inhibition; hits of this screen are not shown here; inhibition, % at 25 µM; hit rate 0.27% among 330,000; AID 434955;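 active means about 74% or more and at least 40 points above the plate without the antibiotic, then above 30% in a dose series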;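 further: growth measured after seven days incubation then overnight dye step; 0% = bacteria only wells and 100% = bacteria with antibiotic; twin plates without the antibiotic show which effects depend on it; some results filed as inactive read as strong as hits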
Arbovirus anti = arbovirus infection inhibition; inhibition, % at 10 µM; hit rate 0.37% among 200,000; arbovirus infection cell-based antiviral screen;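 active means inhibition from about 30%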;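 further: bluetongue infection of BSR cells; cell survival read as ATP light after 72 h; 0% = infected wells without compound and 100% = uninfected wells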
RecA intein inh = inhibitors of M. tuberculosis RecA intein splicing; cell-free RecA intein splicing, fluorescence; inhibition, %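 (about 9 µM by stock and volumes)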; hit rate 0.75% among 290,000; AID 2221; in the data active means inhibition above about 30%;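 further: 0% = vehicle wells and 100% = reference inhibitor control wells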
Target sequence (P9WHJ3 whole entry, looked up): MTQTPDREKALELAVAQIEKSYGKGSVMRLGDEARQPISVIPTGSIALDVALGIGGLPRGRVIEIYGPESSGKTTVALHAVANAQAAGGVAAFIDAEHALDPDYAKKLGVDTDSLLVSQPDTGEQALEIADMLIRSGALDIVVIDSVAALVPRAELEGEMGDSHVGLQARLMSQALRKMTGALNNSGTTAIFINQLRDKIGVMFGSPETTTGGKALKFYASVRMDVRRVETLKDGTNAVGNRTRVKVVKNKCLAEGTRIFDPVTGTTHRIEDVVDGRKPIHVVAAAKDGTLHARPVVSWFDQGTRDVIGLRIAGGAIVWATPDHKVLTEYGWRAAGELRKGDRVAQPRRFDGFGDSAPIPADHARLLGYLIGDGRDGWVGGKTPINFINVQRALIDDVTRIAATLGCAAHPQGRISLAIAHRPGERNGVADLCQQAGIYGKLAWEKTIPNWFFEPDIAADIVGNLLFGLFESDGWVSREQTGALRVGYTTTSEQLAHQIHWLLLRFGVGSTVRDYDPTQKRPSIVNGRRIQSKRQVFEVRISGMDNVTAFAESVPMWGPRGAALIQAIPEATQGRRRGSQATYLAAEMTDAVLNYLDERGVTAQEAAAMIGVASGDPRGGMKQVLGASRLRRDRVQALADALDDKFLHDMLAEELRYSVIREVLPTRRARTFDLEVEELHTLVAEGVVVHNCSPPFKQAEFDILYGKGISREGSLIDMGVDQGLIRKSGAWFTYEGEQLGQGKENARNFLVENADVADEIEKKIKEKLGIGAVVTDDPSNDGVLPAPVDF
Arbovirus anti repeat = further read-out of Arbovirus anti, marked with its call; inhibition, %; measured here: 10K subset replicate screen; many hits read low in the repeat;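 first of two repeat runs on a subset; 0% = infected and 100% = uninfected wells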
* marks the source's active call; other numbers are inactive results; / = no result given; & = joins results of further samples. The list is partial. The share of hits here may be higher or lower than overall.

SMILES	Mtb H37Rv	YopH inh	Mtb betalactam	Arbovirus anti	RecA intein inh	others
O=C1CSC(c2cccnc2)N1CCc1ccccn1 (centres undefined)	7.9%	/	-2.6	/	0.4
CCCCn1c(SCc2nc3ccccc3s2)nc2cc(S(N)(=O)=O)ccc21	3.9%	-11.9	-2.2	-12.9	1.0
c1ccc(C2=NOC(c3nnc(-c4ccccc4)o3)C2)cc1 (centres undefined)	-11.3%	/	10.4	/	-0.7
CCCCN(CCCC)CC(O)COc1ccccc1Br (centres undefined)	10.0%	-1.4	3.9	39.3*	2.2
Cc1cc(C)n2nc(S(=O)(=O)N(CC(C)C)CC(C)C)nc2n1	-0.9%	-37.8	-1.2	-3.2	-0.3	Arbovirus anti repeat=1.2
Oc1ccc2ccccc2c1CN1CC=C(c2ccccc2)CC1	1.9%	/	1.8	3.0	-4.5
COc1ccccc1CNC(=O)c1ccccc1C(=O)NC(C)(C)C(=O)NCc1ccccc1OC	/	/	-1.9	/	-1.7
CC(=O)Nc1ccc(NC(=O)C2CCC(CNS(=O)(=O)c3cccc4nsnc34)CC2)cc1 (centres undefined)	-7.1%	/	2.2	-2.3	1.4
O=C(CSc1nc2ccccc2o1)N1N=C(c2cccs2)CC1c1ccc(F)cc1 (centres undefined)	5.3%	-15.6	8.2	4.2	1.0
CCCCCCC(C)n1[nH]c(=O)cc1N (centres undefined)	-0.4%	/	-0.3	/	2.2
CCOC(=O)C1=C(N)OC2=C(C(=O)CC(C)(C)C2)C1c1cc(CSc2nnnn2C)cs1 (centres undefined)	4.4%	/	3.8	-4.2	3.3
COc1ccc(C(CC(=O)O)NC(=O)Nc2ccccc2)cc1OC (centres undefined)	-3.9%	/	-4.8	17.8	8.1
CC(=O)c1ccc(NC(=O)C2C3C=CC(C3=C(c3ccccc3)c3ccccc3)C2C(=O)O)cc1 (centres undefined)	-3.2%	/	96.5	-17.6	-0.1
COc1ccc(C(=O)C2CCCN(C/C=C/c3ccccc3OC)C2)c(OC)c1 (centres undefined)	12.8%	/	6.3	9.3	2.9
O=c1c2ccccc2nc(-c2ccco2)n1-c1nccs1	0.3%	-103.7	-6.3	6.0	2.5
O=C(NCc1ccccn1)Nc1cc(Cl)ccc1Cl	/	/	-12.7	/	1.0
O=C(Nc1cccc(NC(=O)c2ccc([N+](=O)[O-])o2)c1)c1ccco1	/	/	100.1	/	-2.8
COc1ccccc1C(=O)Nc1ccc2c(c1)CCCN2C(=O)c1cccs1	/	/	58.2	/	8.2
Cc1cccc(N=C2NC(=O)/C(=C\c3cccs3)S2)c1	12.9%	-14.6	75.9	13.1	4.2
CC(C)(C)NC(=O)[C@H]1CC[C@H]2[C@@H]3CC[C@H]4NC(=O)C=C[C@]4(C)[C@H]3CC[C@]12C	-13.7%&6.8%	/	-5.8	-3.5	-2.8

The list goes on, overlapping the part above by four compounds.
SMILES	Mtb H37Rv	YopH inh	Mtb betalactam	Arbovirus anti	RecA intein inh	others
O=C(Nc1cccc(NC(=O)c2ccc([N+](=O)[O-])o2)c1)c1ccco1	/	/	100.1	/	-2.8
COc1ccccc1C(=O)Nc1ccc2c(c1)CCCN2C(=O)c1cccs1	/	/	58.2	/	8.2
Cc1cccc(N=C2NC(=O)/C(=C\c3cccs3)S2)c1	12.9%	-14.6	75.9	13.1	4.2
CC(C)(C)NC(=O)[C@H]1CC[C@H]2[C@@H]3CC[C@H]4NC(=O)C=C[C@]4(C)[C@H]3CC[C@]12C	-13.7%&6.8%	/	-5.8	-3.5	-2.8
COc1ccc(N(Cc2ccccc2)C(=O)CSc2nnc(Cn3nnc4ccccc43)o2)cc1	2.1%	-19.4	-3.3	-7.7	12.8
CC(=O)Nc1ccc(-c2nnc(SCc3c(C)cc(C)cc3C)n2C)cc1	3.4%	-22.4	12.9	-16.7	0.4
Cc1c(C(=O)N2CCCCC2)oc2ccc(Br)cc12	/	/	-2.4	/	2.7
CC1(C)CC(=O)C2=C(C1)NC(=O)NC2c1ccc(Cl)cc1 (centres undefined)	/	/	-8.5	/	0.2
CC1(C)Cc2nc3oc4c(NCc5ccccc5)ncnc4c3cc2CO1	/	-31.8	-2.5	-29.1	1.6
CCOC(=O)COc1ccc2c(=O)cc(-c3ccccc3)oc2c1	<0.195µM*	/	99.2	/	0.9
NC(=O)NC(=O)COC(=O)CC12CC3CC(CC(C3)C1)C2	7.6%	/	-3.0	4.4	1.9
N#Cc1cn(-c2ccccc2)nc1-c1cc2ccccc2oc1=O	0.6%	-6.2	-2.4	2.5	-2.0
O=C(Cc1ccccc1)NCC(=O)OCc1ccc([N+](=O)[O-])cc1	9.2%	-8.9	2.1	8.8	-0.9
COC(=O)C1=C(C)NC(C)=C(C(=O)OC)C1c1ccc(-c2cccc(Cl)c2Cl)o1	-1.2%	-8.5	6.4	12.2	-2.4
CC1CCC(NC(=O)CN2CCC(n3nnc4cc(F)ccc43)CC2)CC1 (centres undefined)	-10.5%	-26.8	-0.7	2.4	1.9
COCCNC(=O)C(c1cccnc1)N(Cc1ccccc1)C(=O)Cn1nnc2ccccc21 (centres undefined)	1.8%	/	2.6	5.9	3.5
COc1ccc(Br)cc1C(=O)NC(=S)Nc1ccc(CN2CCOCC2)cc1	/	/	72.2	/	-0.1
CC(C)Oc1ccc(CNC(=O)Cn2ccc3cc(S(=O)(=O)N4CCCC4)ccc32)cc1	/	/	-1.4	/	-0.2
Cc1[nH]c2ccc(F)cc2c1CCN(Cc1cccnc1)C(=S)Nc1ccc(F)cc1	-2.0%	/	18.8	10.5	40.3*
COc1ccc(C(=O)c2ccc([N+](=O)[O-])cc2Cl)cc1	1.6%	/	-5.8	-17.9	-4.4
COc1ccccc1C1=NNC(=Nc2cccc(S(=O)(=O)N(C)C)c2)SC1	-20.1%	/	-4.1	-20.4	-1.4
Cc1cc(C)c2nc(NC(=O)c3ccc4c(=O)n5c(nc4c3)CCCCC5)sc2c1	1.7%	-10.4	-0.9	9.2	3.1
CCC(=O)N1CCC2(CC1)Oc1ccc(Cl)cc1C(=O)C21CC(c2ccccc2)=NO1 (centres undefined)	3.4%	/	77.1	/	8.1
O=c1c2[nH]c3ccccc3c2nc2n1CCS2	0.4%	/	-2.1	9.1	-5.6
NC(=O)NCc1ccc(F)cc1	5.2%	/	-4.9	6.1	-1.3
CC1(OC(=O)c2ccco2)C(=O)C=C2C=C(C3CC3)OC=C2C1=O (centres undefined)	1.5%	/	13.0	/	-10.6
O=C(Nc1ccc(OCc2ccccc2Cl)cc1)c1cccnc1	/	/	3.5	/	2.7
O=C(CSc1ccc2nc(-c3ccccc3)cn2n1)NCC1CCCO1 (centres undefined)	/	/	-1.5	/	-2.9
Cc1cccn2c(CN[C@H]3CCCCNC3=O)c(C(=O)N3CCOCC3)nc12	6.0%	/	-8.7	1.0	1.4
COc1cccc(NC(=O)COC(=O)C2CCN(S(=O)(=O)c3cccs3)CC2)c1	-6.9%	/	3.6	11.5	0.2
COc1ccc(NC(=O)Nc2nnc(-c3ccco3)s2)cc1	0.9%	/	-3.4	/	1.6
CC(=O)OCC(=O)C1=CCC2C3CCC4=CC(=O)C=CC4(C)C3(F)C(OC(C)=O)CC12C (centres undefined)	1.6%	/	1.9	12.3	0.2
Cc1cc(C)c(S(=O)(=O)N2CCCOC2CNC(=O)C(=O)NCc2ccco2)c(C)c1 (centres undefined)	5.6%	6.1	0.1	4.4	-0.7
Cc1ccc(C(=O)c2c3ccc(C(F)(F)F)cc3nn2CCC(N)=O)cc1	/	/	9.0	/	-0.1
Cc1noc(C)c1CSc1nnc(C)c(=O)[nH]1	-0.5%	-35.8	-7.0	2.7	-2.3
CCOC(=O)c1ccc(S(=O)(=O)NC2CCCCCCC2)n1C	16.3%	-22.0	-3.6	9.8	3.0
c1ccc(CN2CN=C(Nc3nc4ccccc4s3)NC2)cc1	-2.0%	-23.2	2.6	3.0	0.4
Cc1ccc(-n2c(CSc3nc(C)cc(C)n3)nnc2SCC(=O)N2CCCC2)cc1	-5.8%	-44.7	5.3	4.3	1.5
N#CCCNc1ccc(OCCC#N)cc1	-0.5%	-19.0	-6.2	-7.6	-7.5
CCOC(=O)CN1C(=O)CSc2ccc(S(=O)(=O)N3CCOCC3)cc21	/	/	3.6	/	-1.6
NS(=O)(=O)c1ccc(NC(=S)NCc2cccc(Cl)c2)cc1	4.1%	-21.0	-6.9	21.1	0.9
Cc1ccc(-n2nnnc2SCC(=O)N2CCc3ccccc3C2)cc1	3.3%	11.2	-1.7	-1.7	9.8
C/C(=N\NC(=O)C1CCCC1)c1ccc(Cl)c(Cl)c1	/	/	-7.5	/	0.9
CCOC(=O)N1CCN(C(=O)C2CCC(=O)N2C(C)C)CC1 (centres undefined)	-5.4%	-23.5	4.9	-4.2	-0.8

Looked up by structure from the list above (4):
SMILES	Mtb H37Rv	YopH inh	Mtb betalactam	Arbovirus anti	RecA intein inh	others
NC(=O)NCc1ccc(F)cc1	5.2%	/	-4.9	6.1	-1.3
COc1ccc(NC(=O)Nc2nnc(-c3ccco3)s2)cc1	0.9%	/	-3.4	/	1.6
COc1cccc(NC(=O)COC(=O)C2CCN(S(=O)(=O)c3cccs3)CC2)c1	-6.9%	/	3.6	11.5	0.2
C/C(=N\NC(=O)C1CCCC1)c1ccc(Cl)c(Cl)c1	/	/	-7.5	/	0.9

Further entries.
SMILES	Mtb H37Rv	YopH inh	Mtb betalactam	Arbovirus anti	RecA intein inh	others
OC(c1ccncc1)(c1ccc(F)cc1)c1ccc(F)cc1	2.8%	-30.8	-3.2	-9.1	1.8
CN(c1ccccc1)S(=O)(=O)c1ccc(NC(=O)c2nc(S(C)(=O)=O)ncc2Cl)cc1	/	/	-3.0	/	2.6
COc1cccc(C(=O)CSc2nc3ccccc3n2CC(=O)N(C(C)C)C(C)C)c1	3.2%	-32.3	-10.7	-2.6	-1.2
O=C(NC1(C(F)(F)F)NC(=O)N(Cc2ccccc2)C1=O)c1cccs1 (centres undefined)	1.2%	-10.3	2.5	/	5.4
CCc1nc(CN2CCN(c3cc(C(F)(F)F)ccn3)CC2)c(C)[nH]1	2.7%	/	-17.8	/	0.8
COc1ccc(OC)c(S(=O)(=O)N/N=C\c2c[nH]c3ccccc23)c1	/	/	7.6	/	-0.8
COc1cccc(COc2nc3c(c(=O)n(C)c(=O)n3C)n2C)c1	/	-19.1	20.9	2.5	0.6
COc1ccc(S(=O)(=O)N2CCC(C(=O)NCC(c3cccs3)N(C)C)CC2)cc1 (centres undefined)	0.1%	-39.2	-5.5	-2.2	-2.8
CCc1ccccc1NC(=S)N1CCN(c2ccccc2F)CC1	/	/	3.4	/	2.4
O=C(O)c1ccccc1C(=O)NCC(O)COc1ccc(Cl)cc1 (centres undefined)	/	/	-1.8	/	0.3
Cc1c(N=C2NC(=O)C(CC(=O)Nc3ccccc3)S2)c(=O)n(-c2ccccc2)n1C (centres undefined)	-7.5%	-37.0	-13.3	-0.1	-0.1
CC1(C)Cc2c(c(N3CCOCC3)nc3sc(C(=O)Nc4cccc(Cl)c4)c(N)c23)CO1	/	/	-9.0	/	-1.3
Fc1ccc(-c2c[nH]c(=S)n2Cc2ccccc2)cc1	0.6%	/	4.9	-0.8	1.5
CCOC(=O)[C@@H]1[C@H]2COc3cc(OC)ccc3[C@H]2N2C(=O)N(c3ccc(F)cc3)C(=O)[C@@]12C	/	/	0.5	/	3.2
CC(=O)Nc1ccc(S(=O)(=O)Nc2c(NC3CCCCC3)c3ccccc3oc2=O)cc1	/	/	2.2	/	-1.5
Cc1cc(=O)oc2cc(Oc3ccc(C(N)=O)cc3[N+](=O)[O-])ccc12	-11.6%	/	-3.2	/	-1.8
CCOC(=O)N1CCN(S(=O)(=O)c2cc(Br)cnc2N)CC1	-9.7%	-14.6	-5.9	1.6	-3.5
COc1cccc(CNC(=O)CSc2cc(=O)n(C)c3ccccc23)c1	-11.5%	/	-1.3	-7.3	3.7
Cc1cc(C(=O)Nc2ccc(S(=O)(=O)Nc3nccs3)cc2)c(C)o1	-2.0%	-17.4	-1.6	9.6	-1.1
COc1ccc(CCC(=O)N2CCN(c3ccccc3)CC2)cc1OC	/	/	0.7	/	1.2
CC(C)[C@H](NC(=O)N1CCn2c1nc1ccccc12)C(=O)NCc1ccccc1Cl	/	/	12.2	/	-2.0
COC(C[C@@H](O)[C@H](C)[C@H](O)COCc1ccccc1)OC	1.4%	/	/	/	-0.3
CCc1ccc(-c2nc(CN3CCC(C(=O)NCc4ccccc4OC)CC3)c(C)o2)cc1	8.0%	-24.5	98.7	-5.5	1.2
CC(=O)c1sc(NC(=O)c2cnc(Cl)c(Cl)c2)nc1C	/	/	11.2	/	0.0
CCOc1ccc(Oc2nc(N(CC)CC)nc(N3CCOCC3)n2)nn1	6.3%	/	10.2	-5.6	-3.9
COc1ccc(C(c2sc3nc(C)nn3c2O)N2CCN(Cc3ccccc3)CC2)cc1OC (centres undefined)	6.5%	-39.2	-3.0	5.5	2.0
